# Assay outcomes deposited in PubChem by ICCB-Longwood Screening Facility, Harvard Medical School.
# Ba CapD inh – inhibitors of Bacillus anthracis CapD enzyme | AID 492967 | actives 0.23% (n = 140,000) | purified CapD enzyme, fluorescence intensity read-out; stronger effect = lower value; some hits fall short of the stated cut | z-score (concentration not given with the values);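 active means z-score under -4 in either of two replicates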;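 further: stock transfer was 100 nL into about 40 µL; score is relative to mean and spread of the plate; one replicate is shown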
# AID504770 – E. coli YBA685 growth inhibition, screen for V. cholerae RctB inhibitors | actives 0.27% (n = 130,000) | z-score (test concentration not listed) | E. coli YBA685 rctB-dependent plasmid, OD600 growth, 3 h; stronger effect = lower value;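 active means z-score under -2 on both plates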;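 further: wells of about 30 µL received 100 nL stock; score is relative to mean and SD of the test wells; the first replicate is given; strong numbers were not always called active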
# * hit, by the source's call; . = no result given; & = joins results of further samples.
# Under each structure: Ba CapD inh | AID504770
COc1cc(C2OC(=O)c3ccccc3S2)cc(OC)c1OC (stereo not drawn)
 : -0.48 | -1.4
O=C(O)C=Cc1ccc(O)c(O)c1
 : -0.16 | .
Cc1cc(C)c2c(n1)SCN(C)C2=N
 : -0.52 | -0.85
C=C(CC(CC(=O)O)C(=O)N1CCN(c2cccc3[nH]ccc23)CC1)CC(C)(C)C (stereo not drawn)
 : 2.3 | .
COc1ccc(C)c(CN(C)C)c1
 : 0.5 | -0.55
O=C1C2=C(c3ccccc31)[N+](=O)[C@@H]1CCCC[C@@H]1N2[O-]
 : -1.2 | -0.45
CC(C)CN1CC(C(=O)O)CC1=O (stereo not drawn)
 : -0.23 | -0.55
COc1cc(-c2cc(C(F)(F)F)n3ncc(C(=O)NC4CCCCC4)c3n2)cc(OC)c1OC
 : -0.45 | .
Cc1ccc(NC(=O)CCc2ccc(C)o2)c(Br)c1
 : -0.12 | -0.65
COc1ccc(C2CC(=O)C3=C(C2)NC(C)=C(C(=O)OC2CCCC2)C3c2ccccc2)cc1 (stereo not drawn)
 : 58 | .
Cc1cccc(N(C)C(=O)c2ccc3c(=O)n4c(nc3c2)CCCCC4)c1
 : 14 | -1.2
COC(=O)c1c(C)nn(-c2ccccn2)c1-c1cc(C)on1
 : 0.7 | -0.1
Cc1nc2cc(C(=O)OCC(=O)NC3CCS(=O)(=O)C3)ccc2n1-c1ccccc1 (stereo not drawn)
 : . | 0.05
Cc1c(C)c(C2=NON3N(C(=O)/C=C/c4ccccc4)c4ccccc4N23)c(C)c(C)c1Cl
 : 0.35 | .
CC1CCc2c(nc3ncnn3c2NCCC2CCCN2C)C1 (stereo not drawn)
 : -0.22 | 0.25
C#Cc1cccc(N=C(N)N=C(N)N)c1
 : 0.69 | .
O=C(NCC(=O)N1CCN(c2ccccc2)CC1)c1ccc(Cl)cc1
 : 0.045 | .
Cc1ccc(Cl)cc1N1CCN(C(=O)c2onc(C)c2Cl)CC1
 : -0.5 | 2.1
Cc1c(OC(=O)c2ccco2)ccc2c3c(c(=O)oc12)CCC3
 : -0.43 | -0.35
CCOC1=NC(C(F)(F)F)(C(F)(F)F)N=C(N2CCOCC2)O1
 : -0.69 | 3.5

# Under each structure: Ba CapD inh | AID504770
Cc1ccc2nc(NC3=NC(C(=O)Nc4ccc(Cl)c(Cl)c4)CC(=O)N3)nc(C)c2c1 (stereo not drawn)
 : 0.24 | .
COC(=O)c1ccc(S(=O)(=O)N(C2CCCCC2)C2CCCCC2)n1C
 : 0.33 | -0.65
CC(C)(C)c1cc(Cl)c(O)c(NC(=O)c2cncc(Br)c2)c1
 : -0.53 | -1.9
Cc1c(C(=O)NC2CCN(Cc3ccccc3)CC2)cnn1-c1ccc(F)cc1
 : 0.46 | 0.2
COc1ccc(C(=O)NCCn2ccc3ccccc32)cc1
 : -0.78 | 2.2
O=C(NCc1ccc2c(c1)CCO2)C1=Cc2ccccc2OC1
 : -0.64 | -0.15
O=C1C2ON(c3ccccc3)C(c3ccc(F)cc3)C2C(=O)N1c1ccccc1 (stereo not drawn)
 : 0.36 | 0.3
CCOC(=O)C1=C(C)NC2=C(C(=O)C(C(=O)OCC)C(c3ccc(OC)cc3)C2)C1c1cccc(OC)c1 (stereo not drawn)
 : 28 | .
Cc1cccc(C)c1NC(=O)C1(N(C)C(=O)c2ccccc2Br)CCC(C(C)(C)C)CC1 (stereo not drawn)
 : 0.6 | .
COC(=O)Cc1[nH]n(-c2nc3ccccc3s2)c(=O)c1C(C)=NC1CC1
 : . | 0.4
CCOC(=O)c1c(NC(=O)Cn2nc(C)c([N+](=O)[O-])c2C)sc2c1CCC(C)C2 (stereo not drawn)
 : -0.22 | .
O=C1c2ccccc2C(=O)C1c1ccccc1Br
 : -1.2 | 0.9
O=C(CCCCCNC(=O)OCc1ccccc1)NCCc1ccc(Oc2ccccc2)cc1
 : -0.025 | .
Cc1ccc(C(=O)N(Cc2ccc3c(c2)OCO3)C2CCCC2)o1
 : . | 0.05
CC(C)(C)C1COc2ccccc2N1S(=O)(=O)c1ccc(Cl)cc1 (stereo not drawn)
 : 0.07 | .
O=C1c2cccc3c(Cl)ccc(c23)C(=O)N1c1ccccn1
 : 70 | -1.2
CCOC(=O)c1cc(-c2ccc(/C=C3\Sc4ccccc4C3=O)o2)ccc1Cl
 : 0.83 | .
CC(C)Cc1ccc(-c2cc(N)c(C(N)=O)s2)cc1
 : 19 | -0.15
O=S(=O)(NCC(c1ccco1)N1CCN(c2ccc(F)cc2)CC1)c1cc(F)ccc1F (stereo not drawn)
 : . | -0.45
COc1ccc(CCCN=C(N)N)cc1Cl
 : . | 1.2

# Next part, starting with the last 6 of the part before.
# Under each structure: Ba CapD inh | AID504770
CC(C)(C)C1COc2ccccc2N1S(=O)(=O)c1ccc(Cl)cc1 (stereo not drawn)
 : 0.07 | .
O=C1c2cccc3c(Cl)ccc(c23)C(=O)N1c1ccccn1
 : 70 | -1.2
CCOC(=O)c1cc(-c2ccc(/C=C3\Sc4ccccc4C3=O)o2)ccc1Cl
 : 0.83 | .
CC(C)Cc1ccc(-c2cc(N)c(C(N)=O)s2)cc1
 : 19 | -0.15
O=S(=O)(NCC(c1ccco1)N1CCN(c2ccc(F)cc2)CC1)c1cc(F)ccc1F (stereo not drawn)
 : . | -0.45
COc1ccc(CCCN=C(N)N)cc1Cl
 : . | 1.2
c1ccc(Cn2cnc3ccccc32)cc1
 : -0.27 | 0.6
Cc1cccc(NC(=O)CN2C(=O)CC(C)S(=O)(=O)c3ccccc32)c1 (stereo not drawn)
 : -0.9 | 1.2
COc1ccccc1C(=O)Nc1ccc2c(c1)nc(CCNC(=O)c1ccco1)n2C
 : 2.4 | -0.4
CCCCSc1nnc(CNC(=O)c2ccccc2)n1-c1ccccc1
 : . | -0.85
CCCCOc1ccc(CSCCN=C(N)N)cc1
 : . | -1.4
COc1ccccc1Cn1cnc2ccccc21
 : . | 1.5
O=C(Cn1c2ccccc2c(=O)c2ccccc21)Nc1ccc(Oc2ccccc2)cc1
 : 5.8 | .
COc1ccc(S(=O)(=O)Cc2ccc(C(=O)O)o2)cc1
 : 1 | -0.75
Cc1nn(C)c(C)c1CNC(=O)c1ccc(N2CCOCC2)nc1
 : 0.64 | -0.7
Nn1c(Cc2ccccc2F)nnc1SCC(=O)NCc1ccc2c(c1)OCO2
 : . | -0.6
CN(C)CCCNC(=O)NCc1ccc(C(F)(F)F)c(F)c1
 : 0.57 | .
CCN(C(=O)CSc1nc2nc(C)c(Cc3cc(C)ccc3C)c(C)n2n1)c1cccc(C)c1
 : -0.43 | 0.9
O=C(O)C1CC1C(=O)N1CCN(c2cc(C(F)(F)F)nc3ccccc23)CC1 (stereo not drawn)
 : -0.14 | .
CC(=O)C1=C(C)OC(N)=C(C#N)C1c1cc([N+](=O)[O-])ccc1Cl (stereo not drawn)
 : -1.2 | .
C/C(=C/C(=O)Nc1ccc(Sc2nc(C)cc(C)n2)cc1)C(=O)O
 : -0.21 | .
C=CCc1cccc(CNc2ccc(C(=O)OCC)cc2)c1O
 : 2.2 | -0.75
O=C(/C=C/c1ccc(Br)o1)/C=C/c1ccc(Br)o1
 : -1 | 0.75
CC1CCCN(C(=O)CCS(=O)(=O)Cc2ccccc2)C1 (stereo not drawn)
 : -0.42 | 0.6
N#Cc1cc(C#N)c(SCc2cc(=O)n3cc(Br)ccc3n2)nc1N
 : . | 0.15
COc1ccc(C(=O)N2CCc3c([nH]c4ccccc34)C2)cc1
 : -0.27 | .

# Under each structure: Ba CapD inh | AID504770
CCC1NC(=S)NC(C)=C1C(=O)c1ccccc1 (stereo not drawn)
 : -2.7 | 0.25
CC(C)C(C)NC(=O)Nc1ccc(Cl)cc1 (stereo not drawn)
 : . | -0.3
C/C(=N\NC(=O)c1cccnc1)C1COc2ccccc2O1 (stereo not drawn)
 : 0.07 | -0.35
CCOC(=O)c1ccc(NC(=O)CSc2nc3ccc(N4CCOCC4)cc3c(=O)n2Cc2ccccc2)cc1
 : 2.2 | .
O=C1C2CC=CCC2C(=O)N1c1ccc(Cl)cc1 (stereo not drawn)
 : 0.05 | 0.15
CCOC(=O)c1c(NC(=O)COC(=O)c2ccc(Br)o2)sc(C)c1CC
 : . | 1.1
Cc1ccc(S(=O)(=O)N(CC(=O)N2CCCCCC2)c2ccc(C)c(Cl)c2)cc1
 : -0.015 | -0.6
CC1(C)CC(=O)C2=C(C1)Nc1[nH]c(=O)[nH]c(=O)c1C2c1ccc(Br)cc1 (stereo not drawn)
 : 4&-0.68 | 1.9
CCC1CCCN1Cn1cnc2c([nH]c3ccc(C)cc32)c1=O (stereo not drawn)
 : 0.31 | 0.8
O=C(O)C(Cc1ccccc1)c1ccccc1 (stereo not drawn)
 : 1.9 | -1
C=CCn1cnc2sc3c(c2c1=O)CCC(C)C3 (stereo not drawn)
 : -0.17 | -0.45
COc1ccc(C(=O)NC(=S)Nc2ccc3[nH]c(=O)[nH]c3c2)cc1Br
 : 0.11 | 0.35
CCCCCOC(=O)c1c(C)oc2c1cc(NS(=O)(=O)c1ccc(OC)cc1)c1ccccc12
 : 0.42 | .
O=C(Cc1csc(-c2ccccc2)n1)N/N=C/c1c(F)cccc1Cl
 : -0.02 | .
Cc1cc(=O)[nH]c(SCC(=O)c2ccc(F)cc2)n1
 : 0.34 | -0.6
COc1cc2c(cc1OC)CN(C(=O)C1CCCN1S(=O)(=O)c1ccc(C)cc1)CC2 (stereo not drawn)
 : -0.21 | -0.25
Cc1ccc(Sc2ccc(NC(=O)Nc3ccc(SC(F)(F)F)cc3)cn2)cc1
 : 0.41 | .
CC(C)CC(OC(=O)c1cccs1)C(=O)NCc1cccs1 (stereo not drawn)
 : . | 0.55
COC(=O)CSc1nc(C)cc(C)n1
 : 0.1 | -0.8
COc1cccc(/C=C/C(=O)Nc2ccc3nc4n(c(=O)c3c2)CCCC4)c1OC
 : -1.6 | -0.4

# Under each structure: Ba CapD inh | AID504770
CC(=O)c1cc2c(cc1NC(=O)c1cc3nc(-c4ccc(C)cc4)cc(C(F)(F)F)n3n1)OCO2
 : -0.21 | .
O=C(O)c1ccc2c(c1)NC(=O)C(CSCc1cccc(F)c1)N2 (stereo not drawn)
 : 31 | -0.9
N#CC1=C(N)C(C#N)(C#N)[C@@H](c2ccccc2)[C@@H]2CCCC=C12
 : 13 | .
CCOC(=O)c1sc2nc(SCC(=O)N3CCCC3)n(Cc3ccc(C)cc3)c(=O)c2c1C
 : -1.8 | .
Cn1nnc2cc(NC(=O)NC3CCCCC3)ccc21
 : . | 0.25
CC1CCCC(NC(=O)CCCn2c(=O)c3cccn3c3cccnc32)C1C (stereo not drawn)
 : 2.3 | -0.35
CC(C)C(=O)/C(C#N)=N/Nc1ccc(F)cc1
 : -3.2 | -1.7
Cc1nc(N2CCCCC2)c2c(C)c(C(=O)Nc3c(F)cccc3F)sc2n1
 : 2.1 | .
Cc1cccc2nc(CSc3nncn3-c3ccccc3F)cc(=O)n12
 : . | -0.55
CN(Cc1ccccc1)C(=O)COC(=O)c1cc(=O)c2ccccc2o1
 : . | -0.65
CCSc1nnc(NC(=O)C2CC=CCC2C(=O)O)s1 (stereo not drawn)
 : 0.27 | -0.85
CCOC(=O)C1CCN(C(=O)COC(=O)c2c(C)c(CC)nc3ccccc23)CC1
 : . | 1.2
CCOC(=O)c1ccc2c(c1)N(CCCS(=O)(=O)O)/C(=C/C=C/c1n(CCCS(=O)(=O)[O-])c3cc(C(=O)OCC)ccc3[n+]1CC)N2CC
 : 3.6 | .
CCn1c(CNC(=O)c2ccc3c(c2)OCO3)nnc1SCC(=O)NC1CCCCC1
 : . | -0.6
NC(=O)Cn1c(S(=O)(=O)Cc2ccccc2)nc2ccccc21
 : 0.6 | -0.5
Cc1cccc(Nc2cc(N3CCOCC3)ncn2)c1
 : 0.32 | -0.55
COc1cc(S(=O)(=O)Nc2cc3oc4ccccc4c3cc2OC)ccc1NC(C)=O
 : . | -0.25
O=c1cc(C(F)(F)F)nc2cc(-c3ccccc3)[nH]n12
 : . | -0.75
NNC(=O)CS(=O)(=O)c1ccc(Cl)cc1
 : -2.1 | -0.3
CC1(C)Cc2nc(NCCO)c(C#N)cc2CO1
 : 75 | -0.45

# Under each structure: Ba CapD inh | AID504770
O=c1c(Cc2ccc(Cl)cc2Cl)c(O)ccn1CCc1ccccc1
 : -0.83 | .
CC(C)(C)NC(=O)N1CCC(C(=O)c2ccccc2)CC1
 : 0.73 | 0.25
Cc1ccccc1C1CC(=O)Nc2c1ccc1ccccc21 (stereo not drawn)
 : -0.47 | .
CN(C)S(=O)(=O)c1cccc(C(=O)NC2CCCCCC2)c1
 : . | 1.8
CN(C)CCC(Oc1ccc(F)cc1)c1ccc(S(C)(=O)=O)cc1 (stereo not drawn)
 : -0.35 | .
COc1ccccc1OCCOc1ccccc1OC
 : 0.63 | .
CCCNS(=O)(=O)c1ccc(Oc2ncc(C(F)(F)F)cc2Cl)cc1
 : -0.12 | .
CC(C)[C@H](NC(=O)c1ccccc1)C(=O)N1CCN(c2ccccc2)CC1
 : . | -0.35
O=C(CCc1ccc(O)cc1)NNC(=S)Nc1cc(C(F)(F)F)cc(C(F)(F)F)c1
 : -0.28 | .
Cn1c(-c2ccc(F)cc2)nc2ccccc21
 : 0.76 | -0.4
O=C(CCCn1c(=O)oc2ccccc21)Nc1cccnc1
 : . | 1.5
Cc1ccc(/C=C2/C(=O)NC(=O)N(C3CCCCC3)C2=O)cc1
 : 0.15 | -0.7
CCOC(=O)c1cc2c(N=NC(N)=S)c3ccccc3c-2[nH]c1C
 : -0.3 | .
[O-][n+]1onc2c1CCc1nnccc1-2
 : -0.28 | -1
O=C(O)C1CSC(c2ccc(Cl)cc2)N1 (stereo not drawn)
 : 1.4 | .
COc1ccc(S(=O)(=O)N(CC(=O)Nc2ccc(S(=O)(=O)N3CCCCC3)cc2)c2ccc(Cl)cc2)cc1
 : -0.28 | .
Cc1ccccc1OCC(=O)Nc1cccc(-c2nnc(-c3ccco3)o2)c1
 : 4.3 | -0.45
Cc1ccc(NC(=O)C2CCCN(S(=O)(=O)N3CCOCC3)C2)cc1Cl (stereo not drawn)
 : 0.54 | -0.05
CC1CCN(C(=O)CN2c3cccc4cccc(c34)S2(=O)=O)CC1
 : . | 0.4
